DNA Pol III inh = DNA polymerase III holoenzyme inhibition | hit rate 0.25% among 71,000 | reconstituted DNA polymerase III holoenzyme replication, biochemical | Potency, µM (titrated, usually from 57.1 µM), without a hit: at the highest dose activity change, negative = inhibition; further: potency means the concentration at half of the fitted maximal effect; on the % scale 0 is the no-effect control and ±100 the full control effect
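Reconstituted *E. coli* holoenzyme (0.35 nM Pol III, 1 nM beta, 154 nM SSB, 2 nM primase) was preincubated with compound for 15 min at RT. Synthesis on 1.4 nM ssM13Gori ran 35 min, then was stopped with PicoGreen/EDTA and read as dsDNA fluorescence.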
CRE-bla Fsk = CRE-bla signaling modulation under forskolin stimulation. Potency, µM (titrated, usually from 38.2 µM), inactives show top-dose activity change, negative = inhibition, usual class: activators. CHO CRE-bla reporter (cAMP response element driving beta-lactamase), forskolin EC10, beta-lactamase ratio. AID 662. hit rate 2.5% among 71,000; active means well fitted activation curve with a large enough effect in the signal ratio, with a control signal flat, not every such curve was filed as active; the % refers to the signal ratio; further: potency means the concentration at half of the fitted maximal effect; % of control where 0% means no effect
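Cells were plated overnight at 37 °C, exposed to compound titrations plus EC10 NKH 477 for 3 h, then given CCF4 dye for 2 h at room temperature. Blue/green (460/530 nm) ratio was converted to %Activity and AC50 values calculated.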
USP2a inhib = inhibitors of human ubiquitin-specific protease USP2a | O75604 | USP2a enzymatic assay, qHTS inhibition | Potency, µM (top dose mostly 38.3 µM), without a hit: top-dose activity change, negative = inhibition, actives largely listed as inhibitors | hit rate 0.1% among 60,000;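 further: potency means the concentration at half of the fitted maximal effect; nearly all actives have a fitted effect of over 60% in size; plate controls were DMSO for no effect and NEM full inhibition control for full effect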
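Inhibition is measured in a cell-free coupled assay with 20 nM USP2 core, 20 nM Ub-PLA2 and 20 uM NBD C6-HPC, 2.5 h incubation. Activity normalized to NEM control.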
ALOX15 inhib = blocks human 15-lipoxygenase activity; purified 15hLO-1, xylenol orange hydroperoxide absorbance; Potency, µM (highest dose often 57.1 µM), for the others: top-dose activity change, negative = inhibition, hits mostly inhibitors; hit rate 1.4% among 74,000; AID 887; further: potency means the concentration at half of the fitted maximal effect; on the % scale 0 is the no-effect control and ±100 the full control effect; nearly all actives have a fitted effect of over 55% in size
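Purified human 15hLO-1 (40 nM final) in 25 mM Hepes pH 7.5, 0.01% Triton X-100 was preincubated with compound 15 min at room temperature, then reacted 6 min with 50 uM arachidonic acid; hydroperoxide detected by Fe-XO, 573/405 nm absorbance ratio.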
BRCT inh red = BRCT-phosphoprotein interaction inhibition (red fluorophore); P38398; BRCT-phosphopeptide binding, red fluorescence polarization; Potency, µM (titrated, usually from 76.9 µM), inactives show at the top dose activity change, negative = inhibition, usual class: inhibitors; hit rate 0.03% among 75,000; AID 892; further: on the % scale 0 is the no-effect control and ±100 the full control effect
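Rhodamine-labelled pBACH1 10-mer (100 nM) bound to BRCT domain (100 nM) at pH 7.3; compounds incubated 12 min room temperature, polarization read. Free peptide defines full inhibition; unlabelled decapeptide titrated as control.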
Epigenetic mod = epigenetic modulators derepressing GFP locus in mouse cells; mouse C127i GFP locus derepression, cytometry, 30 h; Potency, µM (titrated, usually from 46.1 µM), inactives show top-dose GFP derepression (activation); hit rate 0.09% among 68,000; further: % of control where 0% means no effect
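Murine C127i mammary cells carrying a silenced, stably integrated CMV-driven GFP reporter were treated with compound for 30 hours at 37 C. After PBS washes, GFP-positive cells were counted by laser-scanning microplate cytometry.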
BRCT PPI green = inhibitors of human BRCA1 BRCT-phosphoprotein interaction (green fluorophore); BRCA1 BRCT-phosphopeptide binding, green fluorescence polarization; P38398; Potency, µM (series often up to 76.9 µM), without a hit: at the highest dose activity change, negative = inhibition, usual class: inhibitors; hit rate 0.05% among 75,000;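 further: potency means the concentration at half of the fitted maximal effect; plate controls were peptide without protein for full effect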
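Fluorescence polarization: His-tagged BRCT (~35 kDa BRCA1 C-terminus, 250 nM) bound to 100 nM fluorescein-labeled phosphorylated 10-aa BACH1 peptide, pH 7.3 phosphate buffer with DTT and Tween 20. Compounds incubated 12 min at room temperature; inhibition read as lowered polarization.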
Ub-GFP proteasome = proteasome inhibitors stabilizing ubiquitin-GFP reporter. AID 526. Ubiquitin-GFP reporter cells, proteasome inhibition, GFP fluorescence; response scale: untreated = 0%, 10 µM MG-132 = 100%. Potency, µM (titrated, usually from 45.9 µM), inactives show at the top dose activation (GFP accumulation), usual class: activators. 67,000 tested, under 10 active; active means well fitted activation curve with a large enough effect, not every such curve was filed as active; further: potency means the concentration at half of the fitted maximal effect
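U2OS cells expressing ubiquitin(G76V)-GFP, seeded overnight in 0.5% FBS medium, then treated 4 hr at 37 C across 46 uM to 2.9 nM. GFP-positive cells counted by laser cytometry (488 ex/515 em); %activity scaled between basal and 10 uM MG-132.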
HADH2 inh = blocks human hydroxyacyl-CoA dehydrogenase type II; Q99714; recombinant HADH2, NADH fluorescence, beta-hydroxybutyryl-CoA; Potency, µM (highest dose often 57.1 µM), for inactives: top-dose activity change, negative = inhibition, hits mostly inhibitors; hit rate 3.4% among 73,000; AID 886; further: potency means the concentration at half of the fitted maximal effect; on the % scale 0 is the no-effect control and ±100 the full control effect; nearly all actives have a fitted effect of over 60% in size; many of its hits are not listed in these tables
Target sequence (Q99714 whole entry, looked up, one chain of several): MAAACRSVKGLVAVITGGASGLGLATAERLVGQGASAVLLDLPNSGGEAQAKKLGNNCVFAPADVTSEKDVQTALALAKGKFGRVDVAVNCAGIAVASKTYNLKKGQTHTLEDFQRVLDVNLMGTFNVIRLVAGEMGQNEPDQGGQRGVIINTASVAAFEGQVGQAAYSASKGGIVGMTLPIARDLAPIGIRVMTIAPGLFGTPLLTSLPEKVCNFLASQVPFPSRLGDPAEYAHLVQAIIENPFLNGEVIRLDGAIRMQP
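Buffer 100 mM Tris-HCl pH 9.0/0.01% Tween-20; HADH2 20 nM; NAD+ 1 mM; beta-hydroxybutyryl-CoA 90 uM (all final). 15 min cpd preincubation, RT.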
HBB splice mod = hemoglobin beta splicing modulation; Potency, µM (top dose mostly 46.1 µM), without a hit: top-dose activation, usual class: activators; hit rate 0.06% among 65,000; HBB splicing reporter cell assay, activation; EGFP reporter with mutant IVS2-654 intron; response scale: normalised to 500 nM splice-correcting PNA; further: potency means the concentration at half of the fitted maximal effect; 0% is about no effect
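Compounds were applied for 2 days to HeLa EGFP-654 cells, 500/well in Optimem with 2% FCS. The reporter's EGFP is disrupted by mis-splicing of beta-globin intron IVS2-654. Readout: summed well GFP fluorescence from 488 nm laser scanning; reference was 500 nM antisense […] 654 PNA.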
* = called active by the depositor; . = no result given; [ ] = remark or other dose. Unless noted, the call rests on the fitted dose curve; in most records, active means well fitted curve in the direction sought with a large enough effect; inconclusive means small, poorly fitted or top-dose-only effect, or another doubt; inactive means no such curve, though single readings can be large; an effect the other way counts as inactive or inconclusive.

SMILES	DNA Pol III inh	CRE-bla Fsk	USP2a inhib	ALOX15 inhib	BRCT inh red	Epigenetic mod	BRCT PPI green	Ub-GFP proteasome	HADH2 inh	HBB splice mod
CC(Sc1nncs1)C(=O)NCc1ccc2c(c1)OCO2 (stereo not given)	-2.3%	-1.9%	-8.8%	6.5%	1.3%	5.1%	-1.3%	0.0%	-11.3%	-0.2%[57.5 µM]
Cc1csc(NC(=O)C(Cc2ccccc2)n2cccc2)n1 (stereo not given)	-0.1%	-14.2%	.	-6.2%	0.9%	0.0%	2.3%	-4.6%	-10.7%	-0.7%
O=C1C(SC(F)(F)C(F)F)=C(C(F)(F)F)OC2C3C=CC(C3)C12 (stereo not given)	0.8%	-5.1%	3.4%	6.3%	-0.3%	-3.1%	-1.0%	-2.6%	-12.9%	-1.1%
NC(=O)NCCS[C@H]1CCCC[C@@H]1O	-6.0%[11.4 µM]	-10.9%[7.6 µM]	.	4.4%[11.4 µM]	0.0%[15.4 µM]	2.3%[9.22 µM]	-1.3%[15.4 µM]	-0.9%[9.17 µM]	-2.6%[11.4 µM]	5.4%[9.22 µM]
O=C(CSc1ccc2nnc(-c3ccccn3)n2n1)Nc1ccc2c(c1)OCO2	-2.2%	10.1%	.	1.5%	-1.2%	.	-1.6%	-2.2%	4.7%	-0.7%

Compound profiles, from the list above:
O=C(CSc1ccc2nnc(-c3ccccn3)n2n1)Nc1ccc2c(c1)OCO2 is entered as DNA Pol III inh = -2.2%; CRE-bla Fsk = 10.1%; USP2a inhib = .; ALOX15 inhib = 1.5%; BRCT inh red = -1.2%; Epigenetic mod = .; BRCT PPI green = -1.6%; Ub-GFP proteasome = -2.2%; HADH2 inh = 4.7%; HBB splice mod = -0.7%
CC(Sc1nncs1)C(=O)NCc1ccc2c(c1)OCO2 (stereo not given) is entered as DNA Pol III inh = -2.3%; CRE-bla Fsk = -1.9%; USP2a inhib = -8.8%; ALOX15 inhib = 6.5%; BRCT inh red = 1.3%; Epigenetic mod = 5.1%; BRCT PPI green = -1.3%; Ub-GFP proteasome = 0.0%; HADH2 inh = -11.3%; HBB splice mod = -0.2%[57.5 µM]

Fetched by compound from the list above:
SMILES	DNA Pol III inh	CRE-bla Fsk	USP2a inhib	ALOX15 inhib	BRCT inh red	Epigenetic mod	BRCT PPI green	Ub-GFP proteasome	HADH2 inh	HBB splice mod
NC(=O)NCCS[C@H]1CCCC[C@@H]1O	-6.0%[11.4 µM]	-10.9%[7.6 µM]	.	4.4%[11.4 µM]	0.0%[15.4 µM]	2.3%[9.22 µM]	-1.3%[15.4 µM]	-0.9%[9.17 µM]	-2.6%[11.4 µM]	5.4%[9.22 µM]
O=C1C(SC(F)(F)C(F)F)=C(C(F)(F)F)OC2C3C=CC(C3)C12 (stereo not given)	0.8%	-5.1%	3.4%	6.3%	-0.3%	-3.1%	-1.0%	-2.6%	-12.9%	-1.1%

From PubChem BioAssay

This is a subset; count on the stated rates, not on these rows.
